# VDR inh: blocks the human vitamin D receptor; Potency, µM, without a hit: max response, negative = inhibition, most hits filed as inhibitors; AID 504847; hit rate 0.93% among 400,000; P11473; VDR-SRC2-3 peptide fluorescence polarization, 2 h; active = well fitted inhibition curve with a large enough effect; inconclusive = small, poorly fitted or top-dose-only effect, or another doubt; inactive = no such curve, though single readings can be large or run the other way; also: series mostly up to about 120 µM
# Target sequence (P11473 whole entry, looked up): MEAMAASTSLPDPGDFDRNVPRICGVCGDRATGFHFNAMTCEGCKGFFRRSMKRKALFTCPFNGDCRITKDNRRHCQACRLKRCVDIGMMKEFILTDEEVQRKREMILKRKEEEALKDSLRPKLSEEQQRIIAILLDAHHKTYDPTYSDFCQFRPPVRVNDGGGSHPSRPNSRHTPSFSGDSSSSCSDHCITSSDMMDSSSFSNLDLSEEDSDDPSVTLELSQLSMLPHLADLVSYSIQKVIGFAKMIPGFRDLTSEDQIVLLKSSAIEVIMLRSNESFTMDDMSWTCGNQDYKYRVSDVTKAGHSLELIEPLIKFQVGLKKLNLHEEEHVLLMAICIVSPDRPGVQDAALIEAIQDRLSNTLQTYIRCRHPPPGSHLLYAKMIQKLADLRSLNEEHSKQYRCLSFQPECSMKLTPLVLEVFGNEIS
#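 Measured by FP: displacement of SRC2-3 coactivator peptide from VDR by library compounds, following a two-hour ambient incubation.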
# * marks the source's active call; other numbers are inactive results; ? = inconclusive; & = joins results of further samples. % is scaled to controls: 0 for no effect and ±100 for the full control effect; potency is read from the fitted curve at half-maximal effect. Only part of the results is shown; the hit share may differ from the screen's.
mol	VDR inh
CC1(C)CC(=O)C2=C(C1)NC(=O)CC2c1ccccc1F (stereo not drawn)	9%
CCOc1ccccc1C(=O)Nc1cc2c(cc1N1CCOCC1)n(C)c(=O)n2C	10%
O=C1OC(c2cccc([N+](=O)[O-])c2)C2(CCCC2)C(=O)C12CCCCC2 (stereo not drawn)	-13%
Cn1c(CN2CCCC2)nc2cc(NC(=O)COc3ccccc3)ccc21	12%
CCCCc1ccc(NC(=S)NCC2CCCO2)cc1 (stereo not drawn)	-15%
CC(=O)NC1CCC(=O)C=C1c1ccccc1 (stereo not drawn)	-15%
O=C(O)c1ccccc1-c1ccccc1C(=O)NCCc1ccccc1	-7%
Cn1c(SCC(=O)c2ccccc2)nnc1-c1cnccn1	?
Cc1nnc2ccc(N3CCN(c4cccc(C(F)(F)F)c4)CC3)nn12	-7%
CN1C(=O)C(CC(=O)Nc2ccccc2)S/C1=N/c1nccs1 (stereo not drawn)	10%
N#CCC(=O)Nc1ccc(C(=O)OCC(=O)c2c[nH]c3ccccc23)cc1	7%
CN(C(=O)COc1ccc(C(C)(C)C)cc1)C1CCS(=O)(=O)C1 (stereo not drawn)	5%
COc1ccc(C[C@@H]2CN3C(=NC[C@@H]3Cc3ccc(O)cc3)N2C[C@H](C)NC(=O)CCC2CCCCC2)cc1	-9%
CC/C(=C(\c1ccc(O)cc1)c1ccc(OCCN(C)C)cc1)c1ccccc1	-1%
CC(C)C(=O)Nc1ncc(Cc2ccc(Cl)cc2)s1	9%
CNC(=O)c1ccc(NC(=O)c2cccc(C(F)(F)F)c2)cc1	-1%
Cc1cc(C(=O)NCCN2CCOCC2)c2ccccc2n1	-2%
Cc1cc(C)cc(N(CC(=O)NCC2CCCO2)S(=O)(=O)c2c(C)noc2C)c1 (stereo not drawn)	-10%
O=C(O)C1CCN(C(=O)CSc2nc3cc(Cl)ccc3c(=O)n2Cc2ccccc2)CC1	-7%
CCn1nc(C)cc1C(=O)N1CCCC(C(=O)c2ccc(OC)cc2C)C1 (stereo not drawn)	-18%

# (continued)
mol	VDR inh
Cc1c(C(=O)Nc2cccc(Cl)c2)oc2ccc(S(=O)(=O)N(C)C3CCCCC3)cc12	-5%
O=C(CSc1cn(CCNC(=O)c2ccccc2)c2ccccc12)NCC1CCCO1 (stereo not drawn)	0%
C=CCn1c(Cc2ccc(OC)cc2)nnc1SCC(=O)NCCc1ccccc1	1%
CN1CCN(S(=O)(=O)c2cc([N+](=O)[O-])ccc2N/N=C/c2ccc(Cl)cc2)CC1	-13%
CN(Cc1ccc2nonc2c1)Cc1nc(Cc2cccc(F)c2)no1	10%
Cc1cc(SCC(=O)OCC(=O)N(C)c2ccccc2)nc2ccccc12	-4%
CC1CC(C)CN(S(=O)(=O)c2ccc3c(c2)NC(=O)C(C)C(=O)N3)C1 (stereo not drawn)	-1%
CC(=O)Oc1ccc2cc(-c3cccnc3)c(=O)oc2c1	-5%
CC1(c2cccc(Br)c2)NC(=O)N(CC(=O)Nc2ccc3c(c2)OCO3)C1=O (stereo not drawn)	-12%
COCCN1Cc2cccc(C(=O)NC(C)CCc3ccco3)c2C1=O (stereo not drawn)	17%
COc1ccc(N(CC(=O)NC(C)(C)C)C(=O)CCC(=O)Nc2nccs2)cc1	-6%
Nc1nnnn1/N=C/c1ccccc1OCc1ccccc1	-15%
N#CCCN(CCC#N)C(=S)NC1CC2C=CC1C2 (stereo not drawn)	-8%
N#CCCN1CCN(C(=S)c2ccc(-c3ccc(Cl)cc3)o2)CC1	1%
C[C@H](CO)N1C[C@H](C)[C@@H](CN(C)C(=O)Nc2ccccc2)Oc2ccc(NS(=O)(=O)c3cn(C)cn3)cc2C1=O	-5%
CN(C)S(=O)(=O)c1ccc(Cl)c(NC(=O)CN2CCCCCC2)c1	8%
CCc1ccc([C@H]2C(C(=O)O)=C[C@@H](CC)N2S(=O)(=O)c2ccc(C)cc2)cc1	2%
CN1CC(O)C(O)C(O)C1CO (stereo not drawn)	0%
COc1ccccc1C(=O)Nc1ccc2c(c1)nc(CN1CCN(C(C)=O)CC1)n2C	-1%
COc1ccc(C(CC(=O)N2CCOCC2)c2c(OC)cc(OC)c3ccc(=O)oc23)cc1 (stereo not drawn)	-9%&-4%

# Continuation.
mol	VDR inh
O=C(COc1coc(CN2CCN(c3ccccc3)CC2)cc1=O)Nc1ccc(F)cc1	-8%
O=C(NCCc1ccc(Cl)cc1)C1CCC(=O)N1Cc1ccccc1Cl (stereo not drawn)	-3%
O=C(/C=C/Nc1ccc(F)cc1)c1ccc(Br)cc1	-13%
Nc1cc(=O)nc(SCC(=O)Nc2ccccc2)n1CCc1ccccc1	7%
CNC(=S)NCc1ccc2[nH]c(C)cc2c1	6%
CN(C(=O)c1c[nH]c(=O)cc1C(F)(F)F)c1ccc(Cl)c(Cl)c1	0%
COc1cc(OC)c(NC(=O)Cc2ccc(OC)c(S(=O)(=O)N3CCOCC3)c2)cc1Cl	1%
CCOC(=O)COc1ccc2c3c(c(=O)oc2c1)CCCC3	-21%
O=C(CCS(=O)(=O)c1ccc(Br)s1)Nc1c(F)cccc1F	-7%
CCCN(CCC)C(=O)C1CCN(c2cc(C)nc3c(-c4ccc(OC)c(OC)c4)c(C)nn23)CC1	-16%
Cc1ccc(C(=O)N/C(=C\c2ccc(Cl)cc2)C(=O)NCCCN2CCOCC2)cc1	-5%
COc1cccc(-c2c(C(=O)N/N=C/c3ccsc3)nnn2-c2nonc2N)c1	-7%
Cc1ccc(-c2ccc(=O)n(CC(=O)NCCC(C)C)n2)cc1	-11%
CCOC(=O)C1=NN(c2ccc(Cl)cc2)C(c2ccccc2)CC1=O (stereo not drawn)	-16%
CCOC(=O)c1c(NC(=O)CC)sc(C(C)=O)c1C	-24%
Cc1ccc(C)n1NC(=O)c1ccc(Cl)cc1	12%
Cc1cccc(C)c1OCC(=O)N(Cc1ccc(N(C)C)cc1)C1CCS(=O)(=O)C1 (stereo not drawn)	-11%
CCN(CC(=O)Nc1c(F)cccc1F)C(=O)c1ccc2c(c1)OCCO2	4%
CSc1cc(C)[nH]c(=O)n1	9%
O=C(O)C1CC(=O)N(c2ccc(OCc3ccc(Cl)cc3Cl)cc2)C1 (stereo not drawn)	6%

# Additional entries follow:
smiles	VDR inh
COc1ccc(/C=C2\SC(=S)N(CC(=O)OCC(=O)Nc3cc(Cl)cc(Cl)c3)C2=O)cc1	-20%
CCCCNC(=O)c1onc(CSc2ccc(C(C)C)cc2)c1C(=O)O	-29%
CC(C)OC(=O)C(C)Nc1ccc(F)c(Cl)c1 (stereo not drawn)	3%
COc1cc(C)ccc1OCC(=O)OCC(=O)c1[nH]c(C)c(C(C)=O)c1C	8%
Cc1nc(SCc2nc3ccccc3[nH]2)c2oc3ccccc3c2n1	0%
CC(C)n1cc([C@@H]2C[C@H]3CN(Cc4cccc(Cl)c4)C(=O)[C@]34CCCN24)cn1	19%
CCc1cc2c(C)ccc(C)c2nc1SCC(=O)Nc1c(C)[nH]c(=O)[nH]c1=O	-11%
NS(=O)(=O)c1cc2c(cc1Cl)NC(C1C[C@H]3C=C[C@@H]1C3)NS2(=O)=O (stereo partly drawn)	-16%

# Rewritten with values ahead of the structure: 4 of the compounds above
VDR inh | SMILES
-20% | COc1ccc(/C=C2\SC(=S)N(CC(=O)OCC(=O)Nc3cc(Cl)cc(Cl)c3)C2=O)cc1
-29% | CCCCNC(=O)c1onc(CSc2ccc(C(C)C)cc2)c1C(=O)O
3% | CC(C)OC(=O)C(C)Nc1ccc(F)c(Cl)c1 (stereo not drawn)
8% | COc1cc(C)ccc1OCC(=O)OCC(=O)c1[nH]c(C)c(C(C)=O)c1C

# More structures
smiles	VDR inh
COc1nc(C)nc2c1ccc1ccccc12	0%
O=C(Nc1cc(-c2ccccc2)nn1-c1ccccc1)c1ccccc1F	-14%
O=C(N/N=C/c1ccc(-c2cccc([N+](=O)[O-])c2)o1)c1ccccc1O	-2%
Cn1cnnc1SCc1ccc(C(=O)NN)cc1	-7%
O=C(COc1cccc(NC(=O)c2ccco2)c1)c1ccc(F)cc1	-2%
COCCCNc1oc(-c2ccccc2OC)nc1C#N	-9%
COC(=O)c1cc(C(=O)OCC(=O)N2c3ccccc3NC(=O)C2(C)C)cc([N+](=O)[O-])c1	0%
COc1ccc(CCN2C(=O)CC(C(N)=O)SC2=Nc2ccccc2)cc1 (stereo not drawn)	7%

# (cont.)
smiles	VDR inh
O=C(NNC(=S)NC(=O)c1ccc(F)cc1)c1ccncc1	-2%
COCCn1c(SCC(=O)NCc2ccco2)nnc1C(C)C	-8%
COc1ccccc1NC(=O)c1ccc(N2CC3CC(C2)c2cccc(=O)n2C3)c(NC(=O)c2cccnc2)c1 (stereo not drawn)	-10%
COCCCn1c(=O)c2ccccc2n(CC(=O)NC2CCCC2)c1=O	0%
COc1ccc(Cl)c(Cn2c(NCc3ccccn3)nc3c2c(=O)n(C)c(=O)n3C)c1	-2%
COCCCNC(=O)C(C)n1c2ccccc2c2cnn(C)c(=O)c21 (stereo not drawn)	11%
COc1ccc(CN(C)C(=O)COc2cccc(-n3cnnn3)c2)cc1OC	9%
C=CCn1c(SCC(=O)c2ccc(CNC(C)=O)o2)nc2ccccc2c1=O	-2%

# Later entries
smiles	VDR inh
Cc1onc(-c2ccc(Cl)cc2)c1-c1ccnc(SCC(=O)Nc2cc(Cl)cc(Cl)c2)n1	-7%
Cc1ccc(C(=O)COC(=O)CNC(=O)CN2C(=O)c3ccccc3C2=O)cc1	7%
Nc1c(-c2n[nH]c(=S)n2-c2ccc(Cl)cc2Cl)cnn1-c1ccccc1	19%
Cc1cccc(C(=O)OC2CCCN(C)C2)c1C (stereo not drawn)	-11%
Cc1nnsc1S(=O)c1ccc(Cl)c(Cl)c1 (stereo not drawn)	-16%
CC(=O)N1c2ccc(S(=O)(=O)NCC3CCC(C(=O)Nc4cc(C)ccc4C)CC3)cc2CC1C (stereo not drawn)	11%
CC(=O)Nc1ccc(N=C(C2=C(O)c3ccccc3C2=O)c2ccccc2)cc1	3%
CCN(CC)C(=O)COc1ccc(S(=O)(=O)N2CCOCC2)cc1	19%

# (continued)
smiles	VDR inh
Cc1cc(C(=O)N(C)Cc2ccc(Br)cc2)no1	-1%
Cc1ccc(NC(=O)CN2CCC(NC(=O)C3CCCCC3)CC2)c(Br)c1	-29%
CNC(=O)/C(C#N)=C/c1ccc(OCCOc2ccccc2)cc1	-17%
NC(=O)CSc1ncc(-c2ccc([N+](=O)[O-])cc2)[nH]1	-15%
COc1ccc(-c2cc(C(=O)NCC3CCCO3)c3ccccc3n2)c(OC)c1 (stereo not drawn)	-8%
COc1ccc2[nH]c3c(c2c1)CCN1C(=O)C(CC(=O)NCc2ccc(OC)c(OC)c2)C[C@H](C(=O)N2CCOCC2)[C@@]31CCC1CCCC1 (stereo partly drawn)	?
NC1(C(=O)O)CC1	0%&-18%
COc1ccc(CCNC(=O)C2CC(c3cccc(F)c3)=NO2)cc1 (stereo not drawn)	1%

# A different layout for some results above.
VDR inh | mol
-16% | Cc1nnsc1S(=O)c1ccc(Cl)c(Cl)c1 (stereo not drawn)
11% | CC(=O)N1c2ccc(S(=O)(=O)NCC3CCC(C(=O)Nc4cc(C)ccc4C)CC3)cc2CC1C (stereo not drawn)
3% | CC(=O)Nc1ccc(N=C(C2=C(O)c3ccccc3C2=O)c2ccccc2)cc1

# Carrying on:
smiles	VDR inh
COC(=O)c1sccc1NC(=O)CSc1ccccc1NS(=O)(=O)c1ccccc1Cl	-1%
Cc1ccc(-c2csc(/C(C#N)=C(\O)CN3CCN(C(=O)c4ccco4)CC3)n2)cc1	10%
Cc1noc(C)c1NC(=O)N(C)C[C@@H]1Oc2ccc(NS(=O)(=O)c3c(C)noc3C)cc2C(=O)N([C@H](C)CO)C[C@H]1C	6%
CCC(C)Nc1nc(-c2cccc(OC)c2O)nc2ccccc12 (stereo not drawn)	-13%
CCOC(=O)c1c(NC(=O)COc2cccc3c2CCN(CC)C3=O)sc2c1CCC2	-6%
CS(=O)(=O)Nc1cccc(-c2nc(NC3CC3)c3ccccc3n2)c1	?
O=C(Nc1cccc([N+](=O)[O-])c1)c1ccc2snnc2c1	-13%
O=C(CN1CCN(S(=O)(=O)c2ccc(Br)cc2)CC1)Nc1ccc2c(c1)OCO2	4%

# Five compounds drawn at random from the list so far, as already listed:
smiles	VDR inh
CCC(C)Nc1nc(-c2cccc(OC)c2O)nc2ccccc12 (stereo not drawn)	-13%
Cc1noc(C)c1NC(=O)N(C)C[C@@H]1Oc2ccc(NS(=O)(=O)c3c(C)noc3C)cc2C(=O)N([C@H](C)CO)C[C@H]1C	6%
Cc1ccc(-c2csc(/C(C#N)=C(\O)CN3CCN(C(=O)c4ccco4)CC3)n2)cc1	10%
O=C(CN1CCN(S(=O)(=O)c2ccc(Br)cc2)CC1)Nc1ccc2c(c1)OCO2	4%
O=C(Nc1cccc([N+](=O)[O-])c1)c1ccc2snnc2c1	-13%

# Continuation:
smiles	VDR inh
COc1ccc2[nH]c(-c3ccccc3)cc(=O)c2c1	6%
O=C(CSc1nnc(-c2ccncc2)o1)NC1CCCCC1	-4%
CC(=O)c1[nH]c(C)c(C(=O)NCc2ccc(Cl)cc2)c1C	3%
CC(C)(C)n1ncc2c(=O)n(Cc3cc(F)c(Cl)cc3Cl)cnc21	-10%
Cc1nc2sc3c(c2c(=O)n1NC(=O)CCBr)CCCC3	-17%
CCOC(=O)c1ccccc1NC(=O)CSc1ccc(-c2sc(-c3ccccc3)nc2C)nn1	5%
Cc1ccsc1C(=O)NC1CCCCC1C (stereo not drawn)	1%
O=C(Nc1cccc(F)c1)c1ccc(S(=O)(=O)N2CCCCC2)cc1	15%

# Next section:
smiles	VDR inh
Cc1cccc(C(=O)N2CCC(=O)N(C(COCc3cccc(Cl)c3)Cc3ccccc3)CC2)c1 (stereo not drawn)	-9%
CCC(Sc1nc2c(cnn2-c2ccccc2)c(=O)[nH]1)C(=O)OC (stereo not drawn)	-4%
O=C(COC(=O)c1ccccc1Nc1ccccc1)NCc1ccco1	9%
O=C(c1cccc(Cl)c1)N1CCN(c2ccccn2)CC1	1%
CCOc1ccccc1CN1CCNC(=O)C1CC(=O)N(C)Cc1nonc1C (stereo not drawn)	-4%
